# Source: PubChem BioAssay
# VDR inhibitor = Inhibitors of the vitamin D receptor (VDR): qHTS; Vitamin D3 receptor (Homo sapiens), P11473; VDR-SRC2-3 peptide fluorescence polarization, 2 h; Potency, µM, for inactives: max response, negative = inhibition, most hits filed as inhibitors; actives 0.93% (n = 400,000); active means well fitted inhibition curve with a large enough effect; inconclusive means small, poorly fitted or top-dose-only effect, or another doubt; inactive means no such curve, though single readings can be large or run the other way; further: series mostly up to about 120 µM
# Target sequence (P11473 whole entry, looked up): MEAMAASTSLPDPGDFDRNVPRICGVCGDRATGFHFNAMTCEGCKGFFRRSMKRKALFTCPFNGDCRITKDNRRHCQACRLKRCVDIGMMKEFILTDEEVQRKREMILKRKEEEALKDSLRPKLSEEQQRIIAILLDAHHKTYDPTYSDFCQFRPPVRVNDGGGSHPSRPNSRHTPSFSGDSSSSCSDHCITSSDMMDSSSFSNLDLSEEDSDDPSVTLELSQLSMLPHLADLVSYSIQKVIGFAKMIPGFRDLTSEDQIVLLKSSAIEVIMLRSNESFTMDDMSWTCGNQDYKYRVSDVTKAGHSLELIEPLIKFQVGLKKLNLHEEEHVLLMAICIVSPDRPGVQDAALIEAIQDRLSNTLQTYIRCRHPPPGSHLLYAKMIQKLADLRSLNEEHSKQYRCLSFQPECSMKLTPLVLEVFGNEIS
#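 The screen uses fluorescence polarization to detect compounds that interfere with recruitment of the SRC2-3 coactivator peptide to VDR; plates are read after 2 h at room temperature.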
# The depositor's hits bear a star; ? = inconclusive; & = joins results of further samples; [ ] = another dose, or the depositor's remark. On the % scale 0 is the no-effect control and ±100 the full control effect; potency means the concentration at half of the fitted maximal effect.
canonical_smiles | VDR inhibitor
CC1C=CCC2C(=O)N(c3cccc(C(=O)Nc4ccc(F)cc4)c3)C(=O)C12 (centres undefined) | -8%
Cc1oc2c(c1C(=O)Nc1ccc(OC(F)(F)F)cc1)C1=NCCN1C=N2 | -14%
NC(=S)NN=C1c2cc(S(=O)(=O)N3CCOCC3)ccc2-c2ccc(S(=O)(=O)N3CCOCC3)cc21 | 15%
Cc1cccc(OCC(O)Cn2c(-n3nc(C)cc3C)nc3c2c(=O)[nH]c(=O)n3C)c1 (centres undefined) | 1%
COc1ccc(CNC(=O)C2CCC(CNc3c(N4CCCCC4)c(=O)c3=O)CC2)cc1 (centres undefined) | -8%
CCN(CC)CCNC(=O)NC(=O)c1ccc(Cl)cc1 | 6%
Cc1ccc(N2CCN(S(=O)(=O)c3ccc(F)cc3)CC2)c(C)c1 | -6%
CC(=O)c1nc2ccccc2n1S(=O)(=O)c1ccc(Cl)cc1 | 3%
CC1CC(C)CN(S(=O)(=O)c2ccc(C(=O)N(c3ccccn3)C3CCCCC3)cc2)C1 (centres undefined) | -5%
Cc1ccc(S(=O)(=O)c2c(N)n(/N=C/c3ccco3)c3nc4ccccc4nc23)cc1C | 32%[activator]
CC1=NCC(C)c2c1[nH]c1ccccc21 (centres undefined) | -14%
COc1ccc(C(=O)O/N=C(\N)c2cccc(C)c2)cc1OC | 10%
COc1ccc(S(=O)(=O)N2CCCCCC2)cc1C(=O)NCc1cccs1 | 8%
O=C(CCN1C(=O)C2C3C=CC(C4CC34)C2C1=O)OCC(=O)c1ccccc1 (centres undefined) | 19%
O=S(Cc1ccc(Cl)cc1)c1ncc(CO)n1Cc1ccccc1 (centres undefined) | 5%

# New compounds follow.
canonical_smiles | VDR inhibitor
CCC(C(=O)N1CCC(N2CCCCC2)CC1)n1nc(C)c2sc3ccccc3c2c1=O (centres undefined) | -6%
CC(NC(=O)c1cccc(Br)c1)c1ccccc1 (centres undefined) | 9%
CCC(C)NS(=O)(=O)c1ccc(OCC(=O)Nc2ccc3c(c2)OCO3)cc1 (centres undefined) | -1%
COc1ccc(S(=O)(=O)N2CCC(C(=O)N3CCCCC3)CC2)cc1Cl | 2%
CCN1Cc2c(cc(OC)c(OC)c2OC)-c2ccccc2S1(=O)=O | -10%
C/C(CCS(=O)(=O)c1ccccc1)=N/O | -8%
COc1ccc(C(=O)Nc2ccccc2C(=O)Nc2ccccn2)cc1 | -3%
Cc1ccccc1OCC(=O)NCCN1CCCC1 | 16%
O=C(O)c1ccc(S(=O)(=O)N2CCCc3ccccc32)cc1 | 24%
CCOc1ccccc1Nc1nc(-c2sc(NC(=O)c3cccc(Cl)c3)nc2C)cs1 | ?
COc1ccccc1N1CCN(C(=O)C2CCN(S(=O)(=O)c3cccc4nonc34)CC2)CC1 | -8%
O=C(CN1CCCC1)Nc1cc(F)ccc1F | -8%
Cc1ccc(S(=O)(=O)N2CCCC(C(=O)NCCC(C)C)C2)cc1 (centres undefined) | -20%
COc1cccc(CC(=O)Nc2ccc(F)c(S(=O)(=O)N3CCOCC3)c2)c1 | -1%
Cc1nc(Nc2nc3ccccc3o2)nc(C)c1C | ?

# By substructure, the compounds so far with four or more nitrogen atoms
canonical_smiles | VDR inhibitor
Cc1oc2c(c1C(=O)Nc1ccc(OC(F)(F)F)cc1)C1=NCCN1C=N2 | -14%
NC(=S)NN=C1c2cc(S(=O)(=O)N3CCOCC3)ccc2-c2ccc(S(=O)(=O)N3CCOCC3)cc21 | 15%
Cc1cccc(OCC(O)Cn2c(-n3nc(C)cc3C)nc3c2c(=O)[nH]c(=O)n3C)c1 (centres undefined) | 1%
Cc1ccc(S(=O)(=O)c2c(N)n(/N=C/c3ccco3)c3nc4ccccc4nc23)cc1C | 32%[activator]
CCC(C(=O)N1CCC(N2CCCCC2)CC1)n1nc(C)c2sc3ccccc3c2c1=O (centres undefined) | -6%
CCOc1ccccc1Nc1nc(-c2sc(NC(=O)c3cccc(Cl)c3)nc2C)cs1 | ?
COc1ccccc1N1CCN(C(=O)C2CCN(S(=O)(=O)c3cccc4nonc34)CC2)CC1 | -8%
Cc1nc(Nc2nc3ccccc3o2)nc(C)c1C | ?

# (next part)
canonical_smiles | VDR inhibitor
N#Cc1ccc(S(=O)(=O)N2CCCN(c3ccc(C(F)(F)F)cn3)CC2)cc1 | 1%
C[C@@]1(O)CCOC(=O)C1 | -3%
Cc1ccc(S(=O)(=O)CCc2nnc(N)s2)cc1 | -11%
Cc1ccc(N=C2NC(=O)/C(=C/C=C/c3ccco3)S2)cc1C | ?
CCOc1cc(CNC(CC)CO)ccc1OCC(=O)Nc1cccc(C(F)(F)F)c1 (centres undefined) | -12%
CC1C(=O)Nc2ccccc2N1C(=O)c1c(F)cccc1F (centres undefined) | 8%
Cc1cc(NC(=O)C(C)C)cc(-c2nc3ncccc3o2)c1O | -8%
S=c1nc2ccccc2c2nc(-c3cccnc3)[nH]n12 | -18%
Cc1cc(C)n2c(SCC(=O)N(C)C3CCCCC3)nnc2n1 | -2%
CN=C1SC(CC(=O)Nc2ccc(F)cc2F)C(=O)N1/N=C(\C)c1cccc(OCC(=O)O)c1 (centres undefined) | 2%
CCN(CCNS(=O)(=O)c1ccc2[nH]c(=O)sc2c1)c1ccccc1 | -6%
Cc1ccc(C)c(NC(=O)Cn2c(=O)n(CCCS(=O)(=O)C3CCCCC3)c(=O)c3ccccc32)c1 | -12%
COC(=O)c1sccc1S(=O)(=O)NCc1ccc(S(N)(=O)=O)cc1 | -7%
O=C(CSc1nc2ccccc2o1)NCCOc1ccccc1 | 0%
CC(=O)c1ccc(NC(=O)CN2c3cccc4cccc(c34)S2(=O)=O)cc1 | 7%

# Additional structures follow:
molecule	VDR inhibitor
COCCNc1c(-c2cc3ccc(C)c(C)c3[nH]c2=O)nc2ccccn12	17%
O=C(O)CSc1nc(-c2cccs2)cc(C(F)(F)F)n1	14%
O=C(c1ccco1)N(Cc1ccc(Cl)cc1)Cc1ccco1	6%
CCN(/C=N/c1sc2c(c1C#N)CC(C)(C)NC2(C)C)CC	-13%
CCN1/C(=C2/SC(=S)N(NC(C)=O)C2=O)Sc2ccc(OC)cc21	-17%
COc1ccc(-c2nnc(SCC(=O)Oc3cc(C)ccc3C)o2)cc1	1%
O=C(c1cc(-c2cccs2)on1)N1CCN(c2ccc(F)cc2)CC1	-1%
CCc1noc(C)c1C(=O)Nc1cc(S(=O)(=O)N2CCCCC2)ccc1N(C)C	15%

# Next structures:
molecule	VDR inhibitor
COCCn1c(SCC(=O)Nc2nc3ccccc3s2)nnc1-c1ccoc1C	16%
NS(=O)(=O)c1cccc(NC(=S)NC(=O)C23CC4CC(CC(C4)C2)C3)c1	-5%
CCOc1cc(CNCCSc2nnnn2C)ccc1OCc1ccc(Cl)cc1Cl	-10%
COc1ccccc1NC(=O)c1sc2ncn(Cc3cccc(C)c3)c(=O)c2c1C	-10%
NCC1OC(n2cnc3c(N)ncnc32)CC1O (centres undefined)	-18%
CCOCCCn1c(=S)[nH]c2cc(C(=O)N3CCC(C(N)=O)(N4CCCCC4)CC3)ccc2c1=O	-16%
COc1ccc(S(=O)(=O)n2[nH]c(=O)c(CCO)c2C)cc1	-9%
CCOc1cc(/C=N/NC(=O)c2cc(-c3ccccc3)nc3ccccc23)ccc1O	7%

# Going on with the list.
molecule	VDR inhibitor
O=C(COC(=O)CNC(=O)c1ccccc1F)Nc1nnc(-c2ccccc2)o1	?
COCCn1c(=O)[nH]c2cc(C(=O)N3CCN(c4cccc(Cl)c4)CC3)ccc2c1=O	13%
CCN(CC)c1ccc(-c2nnc(SCC(=O)N(CCOC)c3c(N)n(CC(C)C)c(=O)[nH]c3=O)o2)cc1	-5%
Cc1cccc2c(CCNC(=O)c3ccc([N+](=O)[O-])cc3)c[nH]c12	-13%
CN1CCOC(=O)/C1=N/Nc1cc(Cl)ccc1Cl	-8%
CN(C1CCCCC1)S(=O)(=O)CCNC(=O)c1ccccc1	?
Cc1cc(N)c(-n2cc3c(c2-c2ccc(Br)cc2)c(=O)n(C)c(=O)n3C)cc1C	10%
CCC1CCc2c(n(C)c3ccccc3c2=O)O1 (centres undefined)	-5%

# Continued:
molecule	VDR inhibitor
COc1ccc2nc(NC(=O)CCNC(=O)c3ccco3)sc2c1	-15%
C/C(=N\NC(=O)c1cc(-c2cccc(OC(C)C)c2)nc2ccccc12)c1cccnc1	-18%
CC(=O)NCc1cn2c(C)csc2n1	-8%
CN1CCCC2(CCCN(Cc3nc(Cc4cccc(C(F)(F)F)c4)no3)C2)C1 (centres undefined)	38%[activator]
CC(=O)Oc1ccc2c(C)cc(=O)[nH]c2c1	1%
COc1ccccc1N1CCN(S(=O)(=O)c2ccc3c(c2)NC(=O)C(C)S3)CC1 (centres undefined)	-9%
COc1ccc(OCC(N)=O)cc1	1%
COc1ccc(NC(=O)CSc2nnc(NC(=O)NC3CCCCC3)s2)cc1OC	-13%

# (continued)
molecule	VDR inhibitor
COc1ccc(CNCC(=O)Nc2cc(C)nn2-c2nc(C)cc(C)n2)cc1OC	8%
COc1cccc(-c2cc(C(=O)N3CCOCC3)no2)c1	5%
CN(CC(=O)Nc1ccccc1Br)C(=O)CCC1CCCC1	-4%
CCOCCCN(Cc1ccco1)C(=O)c1cc2c(s1)-c1c(C)cccc1OC2	-16%
Cc1ccn(S(=O)(=O)c2ccc3oc(=O)ccc3c2)n1	-5%
CCN1CCN(S(=O)(=O)c2ccc(S(=O)(=O)NC3CC3)cc2)CC1	12%
CCOC(=O)C1CCCN(C(=O)c2ccccc2[N+](=O)[O-])C1 (centres undefined)	-8%
COc1ccc(C)cc1NC(=O)CCS(=O)(=O)c1cc2c(cc1Cl)NC(=O)CO2	-8%

# (next part)
molecule	VDR inhibitor
COC(=O)c1ccc(N2CCN(C)CC2)c(NC(=O)COc2cccc(C)c2)c1	-5%
N#Cc1c(-n2ncnc2-c2ccc(Br)cc2)sc2c1CCCCC2	-13%
CC(=O)Oc1ccccc1C(=O)Oc1ccccc1C(=O)O	-11%&-13%
COc1ccc(N(CC(=O)N/N=C/c2ccco2)S(=O)(=O)c2ccccc2)cc1Cl	-9%
NC1=NC(c2ccc(Cl)cc2)N(c2ccc(S(N)(=O)=O)cc2)C(N)=N1 (centres undefined)	-2%
CCC(O)(C#CCN1CCCCC1)CC	-15%
CN(C)CCCN(C(=O)c1ccco1)c1nc2c(F)cccc2s1	-18%
Cc1ccc(-n2nc3c(c2NC(=O)c2ccc(F)c(F)c2)CS(=O)(=O)C3)cc1	-12%

# (more compounds)
molecule	VDR inhibitor
COc1ccc(CNC(=O)CN2CCN(S(=O)(=O)c3ccccc3)CC2)cc1	8%
COCCn1c(-c2cc(OC)c(OC)c(OC)c2)nc2oc3ccccc3c(=O)c2c1=O	20%
COc1ccc(C)cc1NC(=O)COC(C)=O	-6%
O=C(O)CCC(=O)N1N=C(c2ccco2)CC1c1cccs1 (centres undefined)	-8%
Cc1ccc(S(=O)(=O)N2CCCCC2)cc1NC(=O)Cn1ncc(Cl)c(Cl)c1=O	1%
CCOC(=O)c1c(-c2ccccc2)csc1NC(=S)N(CC)CC	-17%
COc1cc(/C=C/C(=O)Nc2ccc(C(C)=O)cc2)cc(OC)c1OC	-20%
COc1cccc(Nc2nc(=O)[nH]nc2C)c1	-3%

# Remaining list, next part:
molecule	VDR inhibitor
COc1ccc(N2CCC(CNC(=O)Nc3ccc(OC)cc3OC)C2)cc1 (centres undefined)	11%
COc1ccc(CNC(=O)CSc2nnc(C3CC3)n2C2CC2)cc1	-22%
COc1ccc(N2C(=O)C3ON(C4SC(=S)N(C)C4(C)C)C(c4ccc(Cl)cc4)C3C2=O)cc1 (centres undefined)	10%
CCOc1ccc(S(=O)(=O)NCCC(=O)N(C)CC(=O)Nc2ccc(N3CCOCC3)cc2)cc1	4%
CS(=O)(=O)c1ccc2nc(NC(=O)c3ccccc3Br)sc2c1	-23%
O=C(NC1CCOc2ccccc21)c1ccc(Cl)nc1 (centres undefined)	-12%
N=c1c(-c2nc3ccccc3[nH]2)cc(C(=O)c2cccs2)nn1-c1ccccc1	-8%
CCOC(=O)c1c(NC(=O)CSc2cn(CCNC(=O)c3ccc(OC)cc3)c3ccccc23)sc2c1CCCC2	5%

# Further entries:
molecule	VDR inhibitor
COc1ccc(C2/C=C\CN(S(=O)(=O)c3ccc(C)cc3)C(Cc3ccccc3)C(=O)N2Cc2ccc(F)cc2)cc1 (centres undefined)	-27%
COc1cc(/C=N/NC(=O)c2ccc(O)cc2)ccc1Oc1ccc([N+](=O)[O-])cn1	7%
CCOc1ccc(NS(=O)(=O)c2ccc3c(c2)N(C(C)=O)CC3)cc1	3%
CC(C)NS(=O)(=O)c1ccc(OCC(=O)NCC2CCCO2)c(Cl)c1 (centres undefined)	14%
C/C(=N/NC(=O)c1ccc(Br)o1)c1ccc(C)o1	-3%
Cc1ccc(OCCCC(=O)Nc2ccc(S(=O)(=O)Nc3cc(C)on3)cc2)cc1	0%
O=[N+]([O-])c1cccc(S(=O)(=O)N2CCCCC2c2cccnc2)c1 (centres undefined)	-13%
COc1ccc(-c2nnc(SCc3ccccc3F)o2)cc1OC	1%

# The list goes on:
molecule	VDR inhibitor
O=C(Cc1ccccc1)c1c[nH]c(C(=O)NCc2ccncc2)c1	5%
OC(CNC1CCCc2ccccc21)COc1ccc2ccccc2c1 (centres undefined)	8%
COc1ccc(NC(=O)c2cc3ccccc3o2)cc1S(=O)(=O)N1CCCCC1	1%
O=C(O)c1ccccc1C(=O)c1ccc2oc(=O)[nH]c2c1	-18%
Cc1ccc(NC(=O)C2CCCN(S(=O)(=O)c3cccnc3)C2)cc1C (centres undefined)	19%
COc1ccc(CCn2c(C)cc(C(=O)CN3C(=O)C(=O)N(Cc4ccco4)C3=O)c2C)cc1	6%
O=c1[nH]c(C2CCN(S(=O)(=O)c3ccc4c(c3)OCCO4)CC2)nc2c1nnn2Cc1cccc(F)c1	4%
Cc1ccc(C(=O)CN2C(=O)NC3(CCc4ccccc43)C2=O)s1 (centres undefined)	3%
O=C(O)CCCn1c(=S)[nH]c2c(sc3ccc([N+](=O)[O-])cc32)c1=O	15%

# Some of the compounds tested. The share of hits here may be higher or lower than overall.
